Screening data as filed in PubChem.
KSHV LANA nucl: inhibitors of KSHV LANA binding to nucleosomes; FITC-LANA1-23 / chicken nucleosome fluorescence polarization; hits give low values; 0.3% of 51,000 active; z-score (concentration not given with the values); AID 720717;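 active = both repeat wells score below -2 in polarization z-score versus plate sample wells, excluding overly bright wells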;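 note: 100 nL library stock added to about 30 µL; numbers are from one replicate; some results filed as inactive read as strong as hits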
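System – purified chicken nucleosomes with FITC-labelled LANA N-terminal peptide (1-23) · Amount – 240 nM purified chicken nucleosomes (480 nM peptide binding sites), final · Also added – 50 nM FITC-LANA1-23 probe · Medium – TEN-BT buffer, pH 7.5 · Incubation – compound with peptide–nucleosome mix 10–45 min at room temperature · Detection – fluorescence polarization, ex 480 nm, em 535 nm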
Ab BasE inh: BasE siderophore biosynthesis inhibition | inhibition, % (no concentration beside the values) | AID 485350 | purified BasE, fluorescence polarization binding displacement | 0.1% of 84,000 active;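 active = both replicates above 25% with normal brightness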;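 note: 0% = negative plate control signal and 100% = positive plate control signal; stock transfer was 100 nL into about 30 µL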
* = called active by the depositor; nt = no result given. A portion of the library; rates above refer to the full screens.

Compound	KSHV LANA nucl	Ab BasE inh
CCOc1ccc(-c2cc(C(F)(F)F)c(C#N)c(SCC)n2)cc1	nt	1.9
CN(C)CCCNc1cn[nH]c(=O)c1Cl	0.245	4.8
CCc1ccccc1NC(=O)NC1CCCC1	-1.16	3.3
Cn1c(SCC(=O)c2ccccc2)nnc1C1COc2ccccc2O1 (configuration not stated)	nt	-1.1
COc1cccc(N2CCN(C(=O)C3C4C=CC5(CN(Cc6ccccc6Cl)C(=O)C35)O4)CC2)c1 (configuration not stated)	0.303	0.6
CCCN1CCC(NC(=O)Nc2cccc3ccccc23)CC1	-0.842	-0.2
CCn1c(SCCN2CCCC2)nnc1C1CCCN(C(=O)c2ccc3c(c2)OCO3)C1 (configuration not stated)	-0.761	0.5
CCOC(=O)c1c(C)[nH]c(C)c1C#N	1.82	-4.6
CC(NC(=O)c1c(O)c2ccccc2[nH]c1=O)c1ccccc1 (configuration not stated)	-0.712	2.1
CCCCOC(=O)Nc1ccc(N2CCOCC2)cc1	-0.765	0.8
CCS(=O)(=O)N1CCN(c2ccccn2)CC1	-0.28	-0.2
CCN1CCN(C(=O)C(C)Sc2nnc(-c3cccc(Cl)c3)n2CC)CC1 (configuration not stated)	nt	0.2
CNC(=S)NCc1ccco1	nt	1.5
CCn1cc(C(=O)N2CCN(c3ccc(F)cc3)CC2)c2cc(OC)c(OC)cc2c1=O	-0.068	2.5
CC1(c2ccccc2)NC(=O)N(CN2CCN(S(=O)(=O)/C=C/c3ccccc3)CC2)C1=O (configuration not stated)	nt	-0.9
N[C@@H](CO)CSCc1ccccc1	nt	1.3
O=C(Nc1nnc(Cc2ccccc2)s1)c1ccncc1	nt	1.1
O=C(Nc1cccc(Oc2ccccc2)c1)C1CCC1	nt	-2.4
Cc1onc(-c2c(Cl)cccc2Cl)c1C(=O)ON1C(=O)CCC1=O	nt	-1.5
CSCCSc1nnc(C)n1C1CCCCC1	nt	1.4
c1ccc2c(c1)OC1(CCCCC1)O2	nt	2.1
COc1cc(NC(=O)CNC(C)C)cc(OC)c1	nt	2.4
Cc1ccc(Cl)cc1NC(=O)CC(C(=O)O)N1CCN(C)CC1 (configuration not stated)	0.274	-0.6
CC1CN(C(=O)C(C)N2CCc3ccccc3C2)CC(C)O1 (configuration not stated)	nt	-2.3

Complete entries, looked up by structure.
CCn1cc(C(=O)N2CCN(c3ccc(F)cc3)CC2)c2cc(OC)c(OC)cc2c1=O is listed with KSHV LANA nucl: -0.068; Ab BasE inh: 2.5
CC1CN(C(=O)C(C)N2CCc3ccccc3C2)CC(C)O1 (configuration not stated) is listed with KSHV LANA nucl: nt; Ab BasE inh: -2.3

Next part
Compound	KSHV LANA nucl	Ab BasE inh
COc1cc(SC)ccc1C(=O)Oc1ccccc1C	nt	0.3
CSc1nc2n(n1)C(C)C1=C(CCCC1=O)N2 (configuration not stated)	-0.518	1.2
O=c1[nH]n(-c2ccc(S(=O)(=O)N3CCCC3)cc2)c(=O)c2ccccc12	0.442	1.9
Cc1c(N=C/C=C2\N(C)c3ccccc3C2(C)C)c(=O)n(-c2ccccc2)n1C	nt	0.9
O=C(C1CSC2(c3ccc(F)cc3)CCC(=O)N12)N1CCCCCC1 (configuration not stated)	nt	-2.5
CCCCn1c(=O)[nH]c(=O)c2c1nc(-c1cccs1)c(=O)n2C	nt	7.9
CCC(C(=O)Nc1nnc(C2CC2)s1)c1ccccc1 (configuration not stated)	1.16	-0.9
O=C(Nc1cc(C(F)(F)F)ccc1N1CCCCC1)c1ccncc1	-0.111	2.1
CCC(=O)C1=C(c2ccccc2)N(C(=O)CC)n2cnnc2S1	0.792	-0.2
CC(Oc1ccccc1)C(=O)N1c2ccccc2CC1C (configuration not stated)	0.406	1.9
NC(=O)C1CCN(C(=O)c2cccc(CN3C(=O)c4ccccc4C3=O)c2)CC1	nt	2.1
O=C(O)CC1(CC(=O)NCc2ccccc2F)CCCCC1	0.612	0.6
COc1ccc2cc(C#N)c(N3CCCN(C(=O)/C=C/C(=O)O)CC3)nc2c1	0.561	-1.0
Cc1ccc(O)c(C2=Nc3ccccc3N=C(c3ccco3)C2)c1	nt	-5.9
O=C1CCCC(O)=C1C=NCc1cccnc1	-1.67	5.6
CC1CC(C)CN(C(=O)/C=C/c2ccc(Cl)cc2)C1 (configuration not stated)	0.603	-2.5
Cc1c(C(=O)Sc2ccccc2)sc2nc(C(F)(F)F)nn12	nt	1.9
O=C(NCCN1C(=O)S/C(=C\c2ccccc2F)C1=O)C1Cc2ccccc2CN1C(=O)c1ccco1 (configuration not stated)	nt	-0.2
Cc1noc(C)c1CSc1nnc(-c2ccc(Br)cc2)n1C1CCCCC1	nt	-3.0
c1ccc(C(c2ccccc2)N2CCN(Cc3nnnn3Cc3ccc4c(c3)OCO4)CC2)cc1	0.311	2.0
CC(=O)Nc1c(C#N)c(C)n(-c2ccccc2)c1C(=O)c1ccccc1	1.26	-6.1
O=c1c2ccccc2nc2oc3ccccc3n12	1.19	-3.1
CC1(C)CC(=O)C=C(NCC(O)c2ccccc2)C1 (configuration not stated)	-0.302	0.6
Fc1cccc(-n2ccc(-c3ccccc3)n2)n1	-0.565	nt
COC(=O)c1ccc(C=Nc2ccc3oc(-c4ccc(N(C)C)cc4)nc3c2)cc1	0.328	0.4
Cc1cc(C)c2c(c1)-c1cc(C)nn1C(c1ccc(N3CCOCC3)cc1)N2 (configuration not stated)	-0.778	3.0
O=C1CCC(=O)N1C(c1ccccc1)c1ccccc1	-0.605	2.1
CC(=O)Nc1nonc1-c1nc2ccccc2n1CCCC#N	1.88	-4.2
CCCCc1ccc(NC(=O)C=C(C)C)cc1	-0.211	0.0
C/C(=N\NC(=O)Cc1cc(=O)[nH][nH]1)c1cccs1	-0.665	1.7
COc1cc(-c2nnc(SCC(=O)NC3CCCC(C)C3C)o2)cc(OC)c1OC (configuration not stated)	nt	1.6
Cc1ccc(S(=O)(=O)N2C(=O)CCC2C(=O)N2CCCC2)cc1 (configuration not stated)	-1.63	1.5
CC1=Nc2cc(C(=O)NCc3ccco3)ccc2Sc2ccc(C)cc21	1.54	-8.5
COc1ccc(C)cc1CCNCc1ccc(NC(C)=O)cc1	nt	-3.2
CCn1cc(S(=O)(=O)N2CCC(C(=O)O)CC2)cn1	-0.302	3.4
Cc1ccc(-n2c(=O)c3c(c4cc(C)ccc4n3C)n(C)c2=O)cc1	0.0805	0.8
CN(C)C(=S)NC(=O)c1ccccc1	nt	-0.8
CCn1c(SC)nnc1C1CCCN1C(=O)N(c1ccccc1)c1ccccc1 (configuration not stated)	-0.197	0.1
Cc1ccc(OCC(=O)NCc2ccc(C(=O)O)cc2)cc1C	0.147	-2.7
C=CCn1c(SC(C)C)nc2sc3c(c2c1=O)CCCC3	0.0035	0.5
O=C(Cc1ccccc1)OC1OCCOC1OC(=O)Cc1ccccc1 (configuration not stated)	nt	0.5
CCOc1cc(C2C3=C(CCCC3=O)OC3=C2C(=O)CCC3)ccc1OCC(=O)O	-0.853	-0.3
CN1c2ccccc2Oc2nnc(Cl)cc21	-0.154	-45.9
CC(/C=C/c1cccc(Oc2ccc(F)cc2)c1)N(O)C(N)=O (configuration not stated)	-0.0185	-2.7
CC(C)=N/N=c1\scc(-c2ccccc2)n1Cc1ccco1	-1.5	0.6
Cc1cc(F)ccc1S(=O)(=O)Nc1ccccc1C(=O)OCC(=O)NCc1ccco1	nt	3.3
O=C(O)C1CC(=O)N(c2cccc(Cl)c2)C1 (configuration not stated)	0.814	-1.3
CN(C)C(=O)C(OC(=O)c1cc(=O)[nH]c2ccccc12)c1ccccc1 (configuration not stated)	nt	1.9
CCCCSC1=NC(=O)CC(=O)N1	-1.46	0.3
Cc1noc(C)c1COC(=O)C1COc2ccccc2O1 (configuration not stated)	nt	4.8
O=S(=O)(c1ccccc1)N(CCOc1ccccc1)Cc1ccco1	nt	0.3
CC12CCCC(C(=O)NN)(CCC1)C2	-0.771	2.2
Cc1sc2ncn(CC(=O)NCCc3ccc(S(N)(=O)=O)cc3)c(=O)c2c1C	nt	-1.8
COc1cc(OC)cc(C(C)(C)OC(=O)NN)c1	nt	0.8
Clc1cccc(-c2nc(N3CCC4(CC3)OCCO4)nc3c2COc2ccccc2-3)c1	-0.869	2.3
O=C(O)C1CCN(Cc2ccc(Cl)cc2)CC1	-0.653	1.2
O=C(CSc1ncccc1C(=O)Nc1ccnn1C1CCCCC1)Nc1ccc2c(c1)OCO2	nt	0.9
CC(=O)Nc1sc2c(c1-c1nc3ccccc3s1)CCCC2	0.829	-1.8
CCOc1ccc(-c2cccc(NC(=O)c3c(OC)cccc3OC)c2)nn1	0.102	-5.3
CN1CCN(C(=O)c2ccc3c(c2)NC(=O)/C(=C/c2ccccc2)S3)CC1	0.635	-2.7

Further entries follow:
Compound	KSHV LANA nucl	Ab BasE inh
O=C1C2C3c4ccccc4C(c4ccccc43)C2C(=O)N1CN1CCOCC1 (configuration not stated)	-0.148	2.3
OC(c1ccccc1)C1CN(Cc2ccccc2)CCC1(O)c1ccccc1 (configuration not stated)	0.0685	1.6
CCCNC(=O)NC1CCCc2ccccc21 (configuration not stated)	-1.12	1.0
CCN(CC)C(CN)c1ccccc1 (configuration not stated)	-0.5	-2.1
CCOC(=O)c1cnn(C(=O)c2ccc(-n3c(C)ccc3C)cc2)c1N	nt	-1.3
Cc1nn(Cc2ccc(C(=O)Nc3sc4c(c3C(=O)OC(C)C)CCCC4)o2)c(C)c1Cl	nt	2.2
Cn1c(Cl)cnc1CSc1nnc(-c2ccc3c(=O)n4c(nc3c2)CCCCC4)o1	nt	-0.7
CCOc1ccc2[nH]c(=O)c(-c3nc4cccc(C)n4c3NCc3ccco3)cc2c1	-0.207	1.3
COCC(C)n1c(C)cc(/C=C(\C#N)C(=O)O)c1C (configuration not stated)	nt	2.7
CNC(=S)N/N=C/c1ccc(-c2ccccc2C(=O)OC)o1	-0.581	5.0
O=C(Cc1ncc(C(F)(F)F)cc1Cl)Nc1ccc(N2CCOCC2)cc1	-0.173	nt
Cn1nc(Oc2ccc3ccc(=O)oc3c2)c(=O)n(C)c1=O	nt	-4.5
c1ccc(CCNc2ncnc3scc(-c4ccccc4)c23)cc1	nt	-2.8
S=c1oc2ccccc2n1CN1CCN(c2ccccn2)CC1	nt	4.1
CC1(C)NC(=O)N(CN2C(=O)NC(C)(C)C2=O)C1=O	0.376	1.1
COC(=O)NCc1cc2cc(Cl)ccc2[nH]1	-1.17	1.6
O=C1CCC(Sc2ccccc2C(=O)O)N1 (configuration not stated)	0.416	nt
CCN1C(=O)/C(=C\c2ccccc2)SC1=S	0.158	-0.2
CCc1c(C)sc2[nH]c(=S)n(CC)c(=O)c12	nt	-0.1
CC(NC(=O)CSc1nc(N)cc(=O)[nH]1)c1ccccc1 (configuration not stated)	nt	2.5
OCc1ccc(OCCOCCOc2ccc(Cl)c3cccnc23)cc1	0.346	2.0
COc1ccc(/C=C2\SC(=O)N(CCNC(=O)C3CC(=O)N(c4ccc5c(c4)OCCO5)C3)C2=O)cc1OC (configuration not stated)	nt	0.5
COc1cc(-c2nnc(COC(=O)[C@@H](NS(=O)(=O)c3ccccc3)C(C)C)o2)cc(OC)c1OC	nt	-2.3
CC(C)(C)c1cc2c(c(C(C)(C)C)c1)OCN(CC(=O)O)C2	nt	1.2
COC(=O)C1=CN(C(C)C)C=C(C(=O)OC)C1c1cccc(Br)c1	-1.31	-1.9
CC1=CC(=C2C(=O)NC(=S)NC2=O)C=C(C(F)(F)F)N1CCN(C)C	-0.255	2.1
COCc1c(C(=O)OCc2cc(Cl)c3c(c2)OCO3)oc2ccccc12	nt	3.5
CCCCC(=O)NC(c1ccc(N(C)C)cc1)c1ccc2cccnc2c1O (configuration not stated)	-0.058	3.7
O=C(CC1Sc2ncnn2C1=O)Nc1ccccc1 (configuration not stated)	-1.11	0.2
CCCNS(=O)(=O)c1cc(Cl)ccc1OC	1.14	-2.6
OCc1nc2ccccc2n1CC(O)Cn1ccc2ccccc21 (configuration not stated)	-0.779	-1.4
OCCn1nnnc1NCc1ccc(Br)cc1	-0.236	2.6
O=C1COc2ccc(C(=O)CSc3nnc(-c4ccoc4)c(-c4ccoc4)n3)cc2N1	-0.351	6.1
CCOc1ccc2nc(NCCNC(=O)Nc3ccc(SC)cc3)c(C#N)cc2c1	-0.692	0.0

Retrieved by compound from the list above (7):
Compound	KSHV LANA nucl	Ab BasE inh
OCCn1nnnc1NCc1ccc(Br)cc1	-0.236	2.6
O=C(Nc1nnc(Cc2ccccc2)s1)c1ccncc1	nt	1.1
COc1cc(SC)ccc1C(=O)Oc1ccccc1C	nt	0.3
CC(/C=C/c1cccc(Oc2ccc(F)cc2)c1)N(O)C(N)=O (configuration not stated)	-0.0185	-2.7
CCOc1ccc(-c2cccc(NC(=O)c3c(OC)cccc3OC)c2)nn1	0.102	-5.3
COC(=O)C1=CN(C(C)C)C=C(C(=O)OC)C1c1cccc(Br)c1	-1.31	-1.9
c1ccc(CCNc2ncnc3scc(-c4ccccc4)c23)cc1	nt	-2.8
